Source: PubChem (Broad Institute)
YB-1 expr inh – inhibitors of YB-1 gene expression, primary screen, cell-based, fluorescence; 30,000 compounds, 0.37% hits; delta delta Cp (YB-1 minus CDIP) (test concentration not listed); U2OS, qRT-PCR YB-1 vs CDIP delta delta Cp, 16 h; active compounds read high; zero = DMSO, each unit about twofold;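 active = delta delta Cp rounded down to an integer at or above 3, about 3 SD of DMSO wells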;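 also: higher means less YB-1 transcript or more CDIP transcript relative to DMSO; stock transfer was 100 nL into about 100 µL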
The depositor's hits bear a star.

| YB-1 expr inh | smiles |
| --- | --- |
| 0.23 | C[C@H](CO)N1C[C@H](C)[C@H](CN(C)C)Oc2ccc(NC(=O)CCCCCC(=O)Nc3ccccc3N)cc2C1=O |
| -0.096 | C[C@@H]1CN([C@H](C)CO)C(=O)CCCn2cc(nn2)CO[C@H]1CN(C)C(=O)Nc1cccc(Oc2ccccn2)c1 |
| 0.12 | COc1ccc([Si](C)(C)[C@@H]2[C@@H](CC(=O)N3CCC[C@H]3CO)O[C@]3(C(=O)N(C)c4c(Br)cc(C)cc43)[C@H]2C)cc1 |
| -0.5 | COc1cccc(S(=O)(=O)N(C)C[C@@H]2Oc3ncc(-c4cc5ccccc5o4)cc3C(=O)N([C@H](C)CO)C[C@@H]2C)c1 |
| -0.4 | O=C(N/N=C/c1cc(I)cc(I)c1O)c1ccccn1 |
| 0.01 | COc1ccc(/C=N/NC(=O)CCCCCCC(=O)Nc2ccccc2O)cc1Br |
| -0.47 | O=C(CCCCCC(=O)Nc1ccccc1O)N/N=C/c1ccc(CO)o1 |
| 0.26 | C[C@H]1CN([C@@H](C)CO)C(=O)CCCn2cc(nn2)CO[C@H]1CN(C)Cc1ccc(Cl)c(Cl)c1 |
| 0.43 | CC(C)S(=O)(=O)N[C@@H]1CCCN(Cc2ccc(OCCO)cc2)C1 |
| -0.17 | Cc1ccc(S(=O)(=O)N2CCN(Cc3ccc(OCCO)cc3)CC2)cc1 |
| 0.13 | C[C@H]1CN([C@@H](C)CO)C(=O)CCCn2cc(nn2)CO[C@@H]1CN(C)C(=O)Oc1ccccc1 |
| 0.026 | C[C@H](CO)N1C[C@H](C)[C@@H](CN(C)Cc2ccc(O)cc2)OCc2cnnn2CCCC1=O |
| 0.69 | O=C(CCCCCC(=O)Nc1ccccc1O)N/N=C\c1cccnc1Br |
| -0.1 | C[C@H](CO)N1C[C@H](C)[C@@H](CN(C)C(=O)Nc2cccc(Oc3ccccn3)c2)OCc2cnnn2CCCC1=O |
| 0.14 | COC(=O)[C@]1(Cc2ccccc2CN=[N+]=[N-])N=C(c2ccc(OCCCO)cc2)O[C@@H]1c1ccccc1CN=[N+]=[N-] |
| -0.13 | COc1ccc([C@@H]2C=C(C(=O)N3CCCCC3)O[C@H](OCc3ccc(CO)cc3)C2)cc1 |
| -0.16 | O=C1O[C@H](c2ccccc2)[C@H](c2ccccc2)N2[C@H]1[C@@H](C(=O)N1CCCCCCC1)[C@]1(C(=O)Nc3ccc(C#CC4(O)CCCCCC4)cc31)[C@H]2c1ccc(O)cc1 |
| 0.48 | C[C@H](CO)N1C[C@H](C)[C@H](CN(C)C(=O)Nc2cccc3ccccc23)Oc2ncc(-c3cc4ccccc4o3)cc2C1=O |
| -0.011 | C[C@H](CO)N1C[C@H](C)[C@@H](CN(C)S(=O)(=O)c2cccc(C#N)c2)OCc2cnnn2CCCC1=O |
| -0.1 | COC(=O)CCCCCCC(=O)N/N=C/c1ccc(O)c(O)c1O |

Of the compounds above, these contain a furan ring, fused or not:
| YB-1 expr inh | smiles |
| --- | --- |
| -0.5 | COc1cccc(S(=O)(=O)N(C)C[C@@H]2Oc3ncc(-c4cc5ccccc5o4)cc3C(=O)N([C@H](C)CO)C[C@@H]2C)c1 |
| -0.47 | O=C(CCCCCC(=O)Nc1ccccc1O)N/N=C/c1ccc(CO)o1 |
| 0.48 | C[C@H](CO)N1C[C@H](C)[C@H](CN(C)C(=O)Nc2cccc3ccccc23)Oc2ncc(-c3cc4ccccc4o3)cc2C1=O |

Going on with the list.
| YB-1 expr inh | smiles |
| --- | --- |
| -0.048 | O=C(N/N=C/c1cccc(Br)c1)c1ccccc1O |
| -0.052 | COC(=O)CCCCCCC(=O)N/N=C/c1cc(I)cc(I)c1O |
| 0.014 | Cc1cccc(S(=O)(=O)N(C)C[C@@H]2OCc3cn(nn3)CCCC(=O)N([C@H](C)CO)C[C@H]2C)c1 |
| 0.15 | C[C@@H]1CN([C@H](C)CO)C(=O)CCCn2nncc2CO[C@H]1CN(C)C(=O)Nc1cccc(Oc2ccccn2)c1 |
| -0.055 | C[C@@H]1CN([C@H](C)CO)C(=O)CCCn2cc(nn2)CO[C@@H]1CN(C)C(=O)Cc1ccccc1 |
| 0.17 | Cc1ccc(S(=O)(=O)N(C)C[C@@H]2Oc3ncc(Br)cc3C(=O)N([C@H](C)CO)C[C@@H]2C)cc1 |
| 0.17 | O=C(NCc1ccccc1)[C@@]1(Cc2ccccc2)COC(c2ccc(OCCCO)cc2)=N1 |
| 0.1 | C[C@@H]1CN([C@@H](C)CO)C(=O)CCCn2nncc2CO[C@H]1CN(C)Cc1ccccc1C(F)(F)F |
| -0.24 | C[C@H](CO)N1C[C@H](C)[C@H](CN(C)S(=O)(=O)c2ccccc2)Oc2ncc(-c3cc4ccccc4o3)cc2C1=O |
| -0.46 | COc1ccccc1S(=O)(=O)N(C)C[C@H]1OCc2cnnn2CCCC(=O)N([C@@H](C)CO)C[C@H]1C |
| -0.26 | [N-]=[N+]=Nc1ccccc1C[C@]1(C(=O)N2CCOCC2)N=C(c2ccc(OCCCO)cc2)O[C@H]1c1ccccc1 |
| -0.012 | C[C@@H]1CN([C@@H](C)CO)C(=O)CCCn2cc(nn2)CO[C@H]1CN(C)C(=O)Nc1ccnc(N2CCOCC2)c1 |
| 0.46 | C=CCOC(=O)[C@@H]1[C@H]2C(=O)O[C@H](c3ccccc3)[C@H](c3ccccc3)N2[C@H](c2ccc(OCCOC(=O)[C@@H]3C[C@@H]4C(=O)N[C@@H](Cc5ccccc5)C(=O)N4[C@@H]3c3cccc(OCCO)c3)cc2)[C@@]12C(=O)Nc1ccc(I)cc12 |
| 0.38 | Cc1noc(C)c1S(=O)(=O)N(C)C[C@H]1OCc2cn(nn2)CCCC(=O)N([C@@H](C)CO)C[C@H]1C |
| -0.35 | O=C(CCCCCCC(=O)Nc1ccccc1O)N/N=C/c1cccc(O)c1 |
| -0.73 | COCCOC(=O)N1C(=O)[C@@]2(c3cc(C#CCC(C(=O)OC)C(=O)OC)ccc31)[C@H](C(=O)N1CCc3cc(OC)c(OC)cc3C1)[C@H]1C(=O)O[C@H](c3ccccc3)[C@H](c3ccccc3)N1[C@@H]2c1ccc(O)cc1 |
| -0.18 | CC(C)OC(=O)N(C)C[C@H]1OCc2cnnn2CCCC(=O)N([C@H](C)CO)C[C@H]1C |
| -0.18 | O=C(NO)c1cccc(C(=O)N/N=C/c2cc(Br)c(O)c(Br)c2)c1 |
| -0.1 | O=C(N/N=C/c1ccc(O)c(O)c1O)c1ccccc1O |
| 0.038 | CC(C)(C)/C=N/NC(=O)CCCCCCC(=O)O |
| -0.52 | C[C@H]1CN([C@@H](C)CO)C(=O)CCCn2cc(nn2)CO[C@@H]1CN(C)Cc1ccc(Oc2ccccc2)cc1 |
| 0.54 | O=C(NO)c1ccc(C(=O)N/N=C/c2ccc3ccccc3c2)cc1 |
| 0.015 | O=C(CCCCCCC(=O)Nc1ccccc1O)N/N=C/c1ccc(O)c(O)c1O |
| 0.21 | O=C(N/N=C/c1ccc(F)cc1)c1ccccn1 |
| 0.00028 | C[C@H](CO)N1C[C@H](C)[C@H](CN(C)S(=O)(=O)c2cn(C)cn2)Oc2ncc(-c3ccccc3)cc2C1=O |
| -0.26 | C=CCOC(=O)[C@H]1[C@@H]2C(=O)O[C@@H](c3ccccc3)[C@@H](c3ccccc3)N2[C@@H](c2ccc(OCCOC(=O)[C@@H]3C[C@@H]4C(=O)NCC(=O)N4[C@@H]3c3ccc(O)cc3)cc2)[C@]12C(=O)Nc1ccc(I)cc12 |
| 0.21 | COc1ccc(S(=O)(=O)N(C)C[C@@H]2Oc3ncc(-c4ccc(F)cc4)cc3C(=O)N([C@H](C)CO)C[C@@H]2C)cc1 |
| -0.057 | O=C(N/N=C/c1cccnc1Cl)c1ccccn1 |
| -0.17 | C[C@@H]1CN([C@@H](C)CO)C(=O)CCCn2cc(nn2)CO[C@H]1CN(C)S(=O)(=O)c1ccccc1 |
| -0.15 | NCCCCCNC(=O)[C@@H]1C[C@@H]2C(=O)N3CCC[C@H]3C(=O)N2[C@@H]1c1ccc(O)cc1 |
| -0.018 | CN(C)C(=O)[C@@]1(Cc2ccccc2CN=[N+]=[N-])COC(c2ccc(OCCCO)cc2)=N1 |
| -0.082 | O=C(CCCCCCC(=O)Nc1ccccc1O)N/N=C/c1ccc(Br)s1 |
| -0.37 | C[C@H](CO)N1C[C@H](C)[C@H](CN(C)C(=O)Nc2ccc(F)cc2)Oc2ncc(C#Cc3ccc(F)cc3)cc2C1=O |
| -0.35 | [N-]=[N+]=Nc1ccccc1C[C@]1(C(=O)NCCN2CCOCC2)N=C(c2ccc(OCCCO)cc2)O[C@H]1c1ccccc1 |
| 0.3 | COc1ccc(C#Cc2cnc3c(c2)C(=O)N([C@H](C)CO)C[C@H](C)[C@H](CN(C)S(=O)(=O)c2cccs2)O3)cc1OC |
| -0.3 | COc1ccc([Si](C)(C)[C@@H]2[C@@H](CCn3cc(CCO)nn3)O[C@]3(C(=O)N(Cc4ccc(N5CCOC5=O)cc4)c4ccccc43)[C@H]2C)cc1 |
| 0.17 | CC(=O)NCCCC[C@@H]1NC(=O)[C@H]2C[C@@H](C(=O)NCCCCCCNC(=O)CS)[C@@H](c3ccc(O)cc3)N2C1=O |
| 0.45 | C=CC[C@@]1(C(=O)NCCN2CCOCC2)N=C(c2ccc(OCCCO)cc2)O[C@@H]1c1ccccc1 |
| -0.044 | Cc1cccc(CN(C)C[C@@H]2OCc3cnnn3CCCC(=O)N([C@@H](C)CO)C[C@H]2C)c1 |
| 0.44 | C[C@H]1CN([C@@H](C)CO)C(=O)CCCn2cc(nn2)CO[C@H]1CN(C)C(=O)Nc1ccc(C(F)(F)F)cc1 |

Three entries from above, as tab-separated lines.
Structure	YB-1 expr inh
C[C@H](CO)N1C[C@H](C)[C@H](CN(C)C(=O)Nc2ccc(F)cc2)Oc2ncc(C#Cc3ccc(F)cc3)cc2C1=O	-0.37
[N-]=[N+]=Nc1ccccc1C[C@]1(C(=O)NCCN2CCOCC2)N=C(c2ccc(OCCCO)cc2)O[C@H]1c1ccccc1	-0.35
COc1ccc(C#Cc2cnc3c(c2)C(=O)N([C@H](C)CO)C[C@H](C)[C@H](CN(C)S(=O)(=O)c2cccs2)O3)cc1OC	0.3

Next section:
| YB-1 expr inh | smiles |
| --- | --- |
| 0.065 | O=C(CCCCC(=O)N/N=C/C1=CCCCC1)NO |
| -0.58 | Cc1ccc(CN(C)C[C@@H]2OCc3cn(nn3)CCCC(=O)N([C@@H](C)CO)C[C@@H]2C)cc1 |
| 0.12 | C[C@H](CO)N1C[C@H](C)[C@@H](CN(C)S(C)(=O)=O)OCc2cn(nn2)CCCC1=O |
| -0.18 | C[C@H]1CN([C@@H](C)CO)C(=O)CCCn2nncc2CO[C@@H]1CN(C)C(=O)C1CCCCC1 |
| -0.11 | CC(C)=CCC[C@@H](C)C/C=N/NC(=O)c1cccc(C(=O)NO)c1 |
| -0.55 | O=C(NO)c1cccc(C(=O)N/N=C/c2cn(Cc3ccccc3)c3ccccc23)c1 |
| 0.23 | C[C@@H]1CN([C@H](C)CO)C(=O)CCCn2cc(nn2)CO[C@@H]1CN(C)S(=O)(=O)c1cccc(F)c1 |
| 0.48 | COc1ccc(CN(C)C[C@H]2OCc3cn(nn3)CCCC(=O)N([C@H](C)CO)C[C@H]2C)cc1 |
| -0.34 | COc1ccc(-c2cnc3c(c2)C(=O)N([C@H](C)CO)C[C@H](C)[C@H](CN(C)C(=O)Nc2ccc(F)cc2)O3)cc1 |
| 0.14 | CCCNC(=O)[C@@]1(c2ccc([N+](=O)[O-])cc2)CC(=O)N(CC23CC4CC(CC(C4)C2)C3)[C@@H]1c1ccc(CO)cc1I |
| 0.0055 | COC(=O)[C@]1(Cc2ccccc2)N=C(c2ccc(OCCCO)cc2)O[C@@H]1c1ccccc1N=[N+]=[N-] |
| -0.0043 | C=C(C)[C@@H]1CC=C(/C=N/NC(=O)c2cccc(C(=O)NO)c2)CC1 |
| 0.24 | COCCOC(=O)N1C(=O)[C@@]2(c3ccccc31)[C@H](C(=O)N1CCN(c3ncccn3)CC1)[C@H]1C(=O)O[C@H](c3ccccc3)[C@H](c3ccccc3)N1[C@@H]2c1ccc(O)cc1 |
| 0.34 | C[C@H](CO)N1C[C@H](C)[C@@H](CN(C)C(=O)Cc2ccccc2)OCc2cnnn2CCCC1=O |

Some of these compounds in order of the YB-1 expr inh value, high to low.
| YB-1 expr inh | smiles |
| --- | --- |
| 0.34 | C[C@H](CO)N1C[C@H](C)[C@@H](CN(C)C(=O)Cc2ccccc2)OCc2cnnn2CCCC1=O |
| -0.55 | O=C(NO)c1cccc(C(=O)N/N=C/c2cn(Cc3ccccc3)c3ccccc23)c1 |
| -0.58 | Cc1ccc(CN(C)C[C@@H]2OCc3cn(nn3)CCCC(=O)N([C@@H](C)CO)C[C@@H]2C)cc1 |

Not all compounds are listed (hit frequency here may not be typical).
